Ecoli rRNA inh: inhibitors of bacterial rRNA selective over humanized ribosomes | GFP signal change (wild-type ribosome), % (concentration not given with the values) | E. coli WT GFP vs humanized-ribosome RFP mutants, fluorescence, 24 h; stronger effect = lower value; DMSO median 0, no signal -100 | AID 720706 | 350,000 tested, 1.6% active;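 active = significant combined selectivity score with lowered wild-type GFP, culture density cut under 30%, mutant RFP and density less affected; inactive = any of these conditions unmet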; also: one replicate is shown; some compounds called inactive have numbers as strong as hits
RanGTP-Imp inh: inhibitors of RanGTP-importin-beta interaction, primary screen, biochemical, FRET, CFP-Ran, YFP-importin-beta, homogeneous; cell-free CFP-Ran/YFP-importin-beta FRET ratio; 300,000 tested, 1.1% active; inhibition, % (no concentration beside the values);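 active = most replicates above 15%; inconclusive = exactly half above 15%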;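 also: 0% = DMSO wells and 100% = Ran loaded with GDP instead of GTP; wells of about 40 µL received 100 nL stock; the first replicate is given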
Beta cell apopt: beta cell apoptosis inhibition; 300,000 tested, 0.8% active; protection from apoptosis, % (concentration not given with the values); INS-1E cytokine-induced death, ATP luminescence, 48 h; percent of positive-control rescue, neutral wells zero;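 active = all replicates at 75% or more, or half of them and the mean; inconclusive = half reach 75% but not the mean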;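 also: 0% = cytokine-treated negative control wells and 100% = positive control rescue; higher means more ATP so stronger rescue from cytokine killing; wells of about 40 µL received 100 nL stock; the first replicate is given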
T cruzi repl: T. cruzi replication inhibition; T. cruzi beta-gal in NIH3T3, luminescence, 90 h; inhibition, % (no concentration beside the values); 300,000 tested, 1.4% active;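 active = mean inhibition across valid replicates above about 55%, limit read from the data; inconclusive = mean below that limit but half or more replicates reach it; inactive = mean below it, under half of replicates reach it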;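 also: signal also drops with host cell toxicity which is not excluded here; 0% = plate median of DMSO wells and 100% = zero luminescence signal; higher percent means less beta-gal luminescence so fewer parasites; stock transfer was 50 nL into about 50 µL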
Vif A3G: HIV-1 Vif–A3G interaction blockers – biochemical, TR-FRET, GST-Vif 1-94, biotin-A3G peptide, dose response retest, primary screen (AID 1117319) | TR-FRET GST-Vif / biotin-A3G peptide binding; higher % means a stronger effect; test concentration not given here; strong numbers were not always called active | inhibition, %, or IC50 in µM where a hit was titrated | 260,000 tested, 0.57% active;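 active = above the screen mean plus three standard deviations and confirmed in dose response; inconclusive = results disagree or hit not tested in dose response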;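 also: Vif residues 1-94 fused to GST binding biotinylated APOBEC3G peptide 110-148; 0% = full assay without inhibitor and 100% = GST in place of GST-Vif; retest series ran down from 100 µM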
Calb FLC: affects C. albicans growth with fluconazole. C. albicans CaCi-2 (fluconazole-resistant clinical isolate) + fluconazole, Alamar Blue growth, 48 h. growth inhibition, % (no concentration beside the values). 300,000 tested, 0.57% active;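 active = most replicates above 75%; inconclusive = exactly half above 75%; inactive = most below 75%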;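 also: all wells also contain fluconazole at 8 µg/ml as a sub-toxic cotreatment; 0% = median of DMSO wells and 100% = median of geldanamycin control wells; wells of about 8 µL received 7.5 nL stock; the first replicate is given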
AF4-AF9 inh: inhibitors of human MLL-AF4/AF9 interaction; P42568; AlphaScreen, biotin-AF4 peptide binding to FLAG-AF9; inhibition, % at 10 µM; 350,000 tested, 0.47% active;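 active = every replicate reaching a set inhibition limit, whatever the replicate mean, cut at about 25% in these data; inconclusive = mean inhibition reaches that limit but some replicates miss it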;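 also: 0% = plate neutral control median and 100% = total signal loss; the record names both 10 and 1 µM as test concentration; the first replicate is given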
Target sequence (P42568 whole entry, looked up): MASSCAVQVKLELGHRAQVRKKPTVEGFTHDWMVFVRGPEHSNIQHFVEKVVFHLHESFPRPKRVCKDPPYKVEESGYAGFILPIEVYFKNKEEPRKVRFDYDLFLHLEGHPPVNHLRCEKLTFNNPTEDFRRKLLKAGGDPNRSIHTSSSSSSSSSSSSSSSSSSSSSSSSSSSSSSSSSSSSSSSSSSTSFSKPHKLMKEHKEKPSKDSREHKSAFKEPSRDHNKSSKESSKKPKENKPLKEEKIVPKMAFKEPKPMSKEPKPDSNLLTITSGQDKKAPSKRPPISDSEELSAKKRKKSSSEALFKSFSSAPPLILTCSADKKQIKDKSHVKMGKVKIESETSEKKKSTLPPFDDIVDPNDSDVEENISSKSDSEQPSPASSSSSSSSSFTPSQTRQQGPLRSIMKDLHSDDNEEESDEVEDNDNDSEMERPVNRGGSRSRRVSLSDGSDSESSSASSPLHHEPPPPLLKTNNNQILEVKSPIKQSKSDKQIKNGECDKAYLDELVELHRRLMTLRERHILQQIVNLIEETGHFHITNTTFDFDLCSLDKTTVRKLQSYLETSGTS
A1 inh: inhibitors of the anti-apoptotic protein A1, read as caspase activation; MEF A1-2A-BIM cells, Caspase-Glo 3/7 luminescence, 3 h; percent of clofoctol response, vehicle zero; caspase activation, % (no concentration beside the values); 330,000 tested, 0.066% active; AID 2462;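 active = over half of replicate activation scores above 10%, or exactly half above 10 with the replicate mean above 10; inconclusive = replicate mean below 10 yet half the replicates above 10; inactive = over half of replicates below 10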;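 also: wells of about 30 µL received 50 nL stock; many hits fall short of the cut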
Ecoli rRNA inh OD600: recorded beside Ecoli rRNA inh, whose call it bears; OD600 change, %; measured here: OD600 growth;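 optical density of the mix in the first replicate; 0 = DMSO median and -100 = no signal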
Ecoli rRNA inh RFP: second read-out of Ecoli rRNA inh, no call of its own (marks repeat the call); RFP signal change, %; measured here: RFP humanized mutant strains;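 first replicate; 0 = DMSO median and -100 = no signal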
An asterisk follows results filed as active; ? = inconclusive; / = no result given; & = joins results of further samples. Only part of the results is shown. The share of hits here may be higher or lower than overall.

SMILES	Ecoli rRNA inh	Ecoli rRNA inh OD600	Ecoli rRNA inh RFP	RanGTP-Imp inh	Beta cell apopt	T cruzi repl	Vif A3G	Calb FLC	AF4-AF9 inh	A1 inh
Cc1cc(=O)n2nc(N3CCCC(C(=O)NCCCN4CC(C)CC(C)C4)C3)sc2n1 (stereo unspecified)	6	14	-0.5	1.0	-7	5	0%	17	-1.2	0.4
CCOc1cc(C2NC(=O)NC(C)=C2C(C)=O)cc(Cl)c1OCC(=O)O (stereo unspecified)	12	9	-1.7	?	-2	-9	19%	18	/	0.1
CC(C)CC(=O)Nc1ccc(Oc2ccc3c(c2)C(=O)NC3=O)cc1	10	-2	-5.0	1.5	0	-9	/	0	-3.0	0.4
Cc1c(O)ccc(NC(=O)/C=C/c2ccccc2)c1C	-19	-18	-5.1	-2.5	-2	15	-12%	-12	-5.0	-0.5
Cn1c(SCC(=O)NC2CCCC2)nnc1C(F)(F)F	6	10	2.6	/	0	/	-2%	/	-27	1.2
CCN(C(=O)c1cc2c(=O)n3cccc(C)c3nc2n1CCCOC)C1CCCCC1	-13	-16	-0.2	6.7	8	29	9%	-13	-22	0.3
NS(=O)(=O)c1ccc(CCNC(=O)CSc2ccc(Cl)cc2)cc1	/	/	/	?	/	-15	/	-3	/	0.1
CC(C)(C)OC(=O)N1CCN(C(=O)c2ncn(Cc3ccccc3)c2C(=O)N2CCN(C(=O)OC(C)(C)C)CC2)CC1	4	9	-6.7	/	5	/	/	/	-1.5	-0.3
COc1ccc(-c2nc3ccccc3s2)cc1NC(C)=O	17	5	-0.8	1.4	2	7	-16%	41	-4.7	-0.9
O=C(O)c1ccc(C2(c3ccc(C(=O)O)cc3)OC(=O)c3ccccc32)cc1	4	9	-0.8	-1.0	0	-5	-4%	5	-13	0.4
CCOc1ccc(/C=C/C(=O)Nc2ccc(OC)cc2[N+](=O)[O-])cc1	/	/	/	-17	3	/	32%	-14	/	0.1
O=C(COc1cccc(-n2cnnn2)c1)N1CCOCC1	/	/	/	1.4	/	-6	10%	-4	/	0.3
Cc1c(Cl)cccc1NC(=O)CCN1C(=O)C2CC=CCC2C1=O (stereo unspecified)	1	2	1.6	-4.6	1	9	-4%	4	1.6	0.6
O=C1CCC(C(=O)N2CCSCC2)CN1Cc1ccc(Cl)cc1 (stereo unspecified)	-20	-23	-3.2	-0.8	-6	-1	/	-4	-4.9	-0.5
O=C(c1ccc([N+](=O)[O-])c(CS(=O)(=O)c2ccc(Cl)cc2)c1)N1CCCCC1	-3	-12	-2.9	0.5	1	7	-19%	3	-0.1	0.0
Cc1cc(OCC(O)CNC(C)(C)C)ccc1Cl (stereo unspecified)	9	6	-0.2	-1.3	/	16	2%	?	0.0	1.2
COc1ccc2[nH]cc(CCNC(=O)Cc3c(F)cccc3Cl)c2c1	-11	-3	-4.0	-0.9	1	1	/	12	0.6	0.1
COc1cc(NC(=O)CS(=O)(=O)c2ccccc2)cc(OC)c1OC	/	/	/	5.8	-1	5	-4%	-4	/	1.2
CCOc1ccc(N(C(C)C(=O)Nc2cccnc2)S(C)(=O)=O)cc1 (stereo unspecified)	3	5	-4.2	2.3	0	3	5%	31	-8.4	-0.8
Cc1c(C(=O)OCC(=O)N2CCC(C)CC2)oc2ccccc12	-9	-31	-3.0	-0.2	-2	-5	-6%	-7	?	1.2
CNC(=O)C1(C)C=CC2(CCCCC2)N1C(=O)OC (stereo unspecified)	4	8	-4.1	3.7	6	-12	/	-1	-2.3	0.1
O=C(Cn1c(=O)oc2ccccc21)NCc1ccco1	/	/	/	-4.5	-5	/	1%	-3	/	?
O=C(N=Nc1c(O)n(Cc2ccccc2)c2ccccc12)c1ccncc1	-2	-8	8.3	3.8	17	20	/	-1	14	-1.3
CCOC(=O)c1[nH]c(C)c(/C(O)=C2\C(=O)C(=O)N(CCN(C)C)C2c2ccco2)c1C (stereo unspecified)	/	/	/	1.0	2	-10	-3%	-2	/	0.1

In the list so far, these have a furan ring, fused or not.
SMILES	Ecoli rRNA inh	Ecoli rRNA inh OD600	Ecoli rRNA inh RFP	RanGTP-Imp inh	Beta cell apopt	T cruzi repl	Vif A3G	Calb FLC	AF4-AF9 inh	A1 inh
Cc1c(C(=O)OCC(=O)N2CCC(C)CC2)oc2ccccc12	-9	-31	-3.0	-0.2	-2	-5	-6%	-7	?	1.2
O=C(Cn1c(=O)oc2ccccc21)NCc1ccco1	/	/	/	-4.5	-5	/	1%	-3	/	?
CCOC(=O)c1[nH]c(C)c(/C(O)=C2\C(=O)C(=O)N(CCN(C)C)C2c2ccco2)c1C (stereo unspecified)	/	/	/	1.0	2	-10	-3%	-2	/	0.1

Carrying on:
SMILES	Ecoli rRNA inh	Ecoli rRNA inh OD600	Ecoli rRNA inh RFP	RanGTP-Imp inh	Beta cell apopt	T cruzi repl	Vif A3G	Calb FLC	AF4-AF9 inh	A1 inh
COc1cccc(C(=O)N2CCN(Cc3ccc(OC)cc3OC)CC2)c1	2	6	-3.2	-1.8	-2	6	2%	-6	-1.1	-0.1
O=C(NCCOC(=O)C1COc2ccccc2O1)C1COc2ccccc2O1 (stereo unspecified)	/	/	/	-0.6	-8	-11	2%	-11	/	0.6
O=C1c2ccccc2CN1CCSC(=S)N1CCOCC1	-20	-23	-2.1	-0.8	3	-6	-5%	9	-1.7	2.7
Nc1nonc1-n1nnc(C(=O)N/N=C/c2cccnc2)c1-c1cccs1	-1	-5	1.4	-0.1	-8	-1	/	-9	1.5	0.2
CCOC(=O)N1CCC(NC(=O)CSCc2nc(-c3sccc3C)oc2C)CC1	/	/	/	3.7	-2	9	-7%	19	/	-0.7
CCOC(=O)C1CCN(S(=O)(=O)c2ccc3c(c2)NC(=O)C(C)S3)CC1 (stereo unspecified)	-1	-4	0.4	-1.3	-3	-3	-5%	7	0.1	-0.2
COCCNC(=O)C(c1ccc(F)cc1)N(Cc1ccco1)C(=O)CCC(=O)Nc1nccs1 (stereo unspecified)	/	/	/	-1.9	/	-1	3%	-2	/	0.7
COC(=O)c1ccccc1NC(=O)CCCn1nc([N+](=O)[O-])c(Br)c1C	6	0	-3.6	7.6	-4	20	3%	13	-2.6	0.2
COC(=O)CC1COc2ccccc2N1C(=O)c1cccc(Cl)c1 (stereo unspecified)	/	/	/	-3.2	-2	-7	8%	-26	/	0.2
N#Cc1ccc(OCC(=O)NNC(=O)C2CCCCC2)cc1	21	16	2.2	/	-3	/	/	/	-1.7	-1.4
O=C(NCc1csc(-c2cccs2)n1)c1ccccc1	2	0	-1.0	1.7	-4	/	/	20	3.9	-0.3
Cc1nn(-c2nc3ccccc3s2)c(N)c1-c1ccccc1	9	-2	1.3	1.0	4	23	1%	-13	0.9	-3.2

Whole records as entered above. Order of values: Ecoli rRNA inh	Ecoli rRNA inh OD600	Ecoli rRNA inh RFP	RanGTP-Imp inh	Beta cell apopt	T cruzi repl	Vif A3G	Calb FLC	AF4-AF9 inh	A1 inh
`COCCNC(=O)C(c1ccc(F)cc1)N(Cc1ccco1)C(=O)CCC(=O)Nc1nccs1` (stereo unspecified) is entered as /	/	/	-1.9	/	-1	3%	-2	/	0.7
`COC(=O)CC1COc2ccccc2N1C(=O)c1cccc(Cl)c1` (stereo unspecified) is entered as /	/	/	-3.2	-2	-7	8%	-26	/	0.2
`O=C(NCCOC(=O)C1COc2ccccc2O1)C1COc2ccccc2O1` (stereo unspecified) is entered as /	/	/	-0.6	-8	-11	2%	-11	/	0.6
`COC(=O)c1ccccc1NC(=O)CCCn1nc([N+](=O)[O-])c(Br)c1C` is entered as 6	0	-3.6	7.6	-4	20	3%	13	-2.6	0.2

(cont.)
SMILES	Ecoli rRNA inh	Ecoli rRNA inh OD600	Ecoli rRNA inh RFP	RanGTP-Imp inh	Beta cell apopt	T cruzi repl	Vif A3G	Calb FLC	AF4-AF9 inh	A1 inh
CS(=O)(=O)c1ccc(C(=O)Nc2ccc(N3CCOCC3)cc2)c(Cl)c1	-2	-1	-1.0	-2.6	-12	-3	10%	-5	-0.4	-0.2
CCc1ccc(CN(C)C(=O)c2cc(COc3cccc(C(F)(F)F)c3)on2)nc1	-36	-67	-0.1	-0.3	1	28	/	-10	-2.5	0.9
CCOc1cc(/C=N/NC(=O)c2ccc(NC(=O)C3CC3)cc2)ccc1O	6	10	1.1	0.9	4	-1	-3%	1	-1.5	-0.6
COc1ccccc1C(=O)Nc1cc(C)on1	12	11	12	-1.3	1	-21	/	2	-2.5	-1.3
COc1ccc(S(=O)(=O)N2CCC(C(=O)N3CCCCCC3)CC2)cc1	/	/	/	3.2	1	0	2%	-3	/	-0.9
Cc1ccc2[nH]c3c(c2c1)CN(C(=O)CN1CCSCC1)CC3	/	/	/	-21	/	2	-1%	7	-16	/
CC(CC(=O)Nc1cc([N+](=O)[O-])ccc1Cl)c1ccccc1 (stereo unspecified)	/	/	/	-4.6	8	13	-7%	-2	/	0.4
COc1cc(OC)cc(C(=O)NC(=S)NCc2ccco2)c1	2	5	3.6	-3.4	4	0	8%	-35	0.8	0.6
O=C(NCc1ccc2c(c1)OCO2)C1COc2ccccc2O1 (stereo unspecified)	/	/	/	1.8	-4	-3	26%	-83	/	-2.2
CN(CC(=O)Nc1c(Cl)cccc1Cl)C(=O)c1cc(-c2cccs2)nn1-c1ccccc1	-4	-7	-1.5	2.0	-2	10	/	6	-30	0.4
Cc1cc(C)c2[nH]c(=O)c(CN(Cc3ccc4c(c3)OCO4)Cc3nnnn3C3CCCC3)cc2c1	4	-1	-5.7	1.6	-15	71*	-36%&-14%	-10	8.4	-0.4
CCn1cc(/C=C(\NC(=O)c2cc(OC)c(OC)c(OC)c2)C(=O)NCCN2CCOCC2)c2ccccc21	6	3	4.5	-0.9	-7	-7	/	-10	1.6	0.2
CS(=O)Cc1cc(Sc2ccccc2)nc(-c2cccnc2)n1 (stereo unspecified)	-4	-12	-7.3	1.4	-3	1	9%	?	-0.2	0.2
Cn1ccc(C(=O)N2CCCc3ccccc32)n1	/	/	/	-2.6	-8	-20	20%	0	/	0.4
CSCc1ccc(C(=O)NCC(c2cccs2)N2CCOCC2)cc1 (stereo unspecified)	9	7	-2.3	/	0	0	4%	-8	-0.6	1.4
Cc1cc(NC(=O)CCn2c(=O)sc3ccccc32)no1	/	/	/	-2.3	-10	3	/	-2	/	-0.1
C=CCOC(=O)C1=C(C)NC(SCC(=O)Nc2ccc(C)c(Cl)c2)=C(C#N)C1c1ccco1 (stereo unspecified)	/	/	/	4.5	5	26	1%	1	/	-0.9

From PubChem
